PKD1 inh – inhibitors of human PKD1 kinase, biochemical, fluorescence polarization; 200,000 tested, 0.056% active; PKD1 kinase fluorescence polarization assay; inhibition, %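 (about 10 µM by stock and volumes)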; Serine/threonine-protein kinase D1 (Homo sapiens), Q15139; AID 797, 2007;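 active = inhibition of 50% or more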;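 note: controls were vehicle for no effect and a reference inhibitor for full effect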
Insulin prom inh – inhibitors of insulin promoter-driven GFP, primary screen, imaging, TRM-6 cells (human fetal islet line), eGFP reporter, cell count | reporter expression induced with tamoxifen | inhibition, % at 2 µM | 130,000 tested, 0.9% active;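 active = inhibition above the mean plus 3 SD, with well images judged a real hit on visual review, cut at about 60% in these data, passing the limit was not always enough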
RGS16-Gao – modulators of RGS16 binding to Galphao, primary screen, biochemical, human proteins, multiplexed bead flow cytometry; Regulator of G-protein signaling 16 (Homo sapiens) + Guanine nucleotide-binding protein …; bead-based flow cytometry RGS16-Galphao binding, fluorescence; actives lie on both sides; binding response (% of control), % at 10 µM; 220,000 tested, 0.38% active; AID 1441, 2008;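 active = below 25% or above 175%, edge rows of some plates excepted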;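 note: Galphao activated by GDP with aluminum fluoride before binding; 100% = wells without compound and 0% = beads without RGS; some results beyond the cut were filed as inactive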
Target sequence (O15492 whole entry, looked up): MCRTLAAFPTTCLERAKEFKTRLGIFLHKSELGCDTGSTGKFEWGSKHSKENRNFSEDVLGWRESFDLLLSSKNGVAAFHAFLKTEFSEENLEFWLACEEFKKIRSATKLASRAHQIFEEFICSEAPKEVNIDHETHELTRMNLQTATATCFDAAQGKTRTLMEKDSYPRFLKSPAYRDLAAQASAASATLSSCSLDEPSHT
Target sequence (P09471 whole entry, looked up): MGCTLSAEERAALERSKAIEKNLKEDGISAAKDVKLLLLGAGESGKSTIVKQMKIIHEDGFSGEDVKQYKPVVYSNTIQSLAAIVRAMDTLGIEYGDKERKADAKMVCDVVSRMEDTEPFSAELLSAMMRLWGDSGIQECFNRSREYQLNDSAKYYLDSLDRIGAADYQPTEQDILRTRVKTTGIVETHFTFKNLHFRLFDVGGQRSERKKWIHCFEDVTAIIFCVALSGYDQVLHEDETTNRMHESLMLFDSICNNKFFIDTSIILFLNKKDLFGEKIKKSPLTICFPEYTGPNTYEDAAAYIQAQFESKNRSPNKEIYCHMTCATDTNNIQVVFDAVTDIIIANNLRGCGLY
GALR2 agonist – GALR2 receptor agonists, primary screen, cell-based. Galanin receptor type 2 (Homo sapiens), O43603. GALR2-expressing cells, agonist activation read-out. activation, %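 (tested at 5 µM)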. 140,000 tested, 0.48% active. AID 803, 2007;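 active = above mean plus 3 SD of all compounds, about 5% in these data, not always enough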;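 note: 0% = vehicle buffer wells and 100% = reference agonist at full effect; tested in CHO reporter cells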
Target sequence (O43603 whole entry, looked up): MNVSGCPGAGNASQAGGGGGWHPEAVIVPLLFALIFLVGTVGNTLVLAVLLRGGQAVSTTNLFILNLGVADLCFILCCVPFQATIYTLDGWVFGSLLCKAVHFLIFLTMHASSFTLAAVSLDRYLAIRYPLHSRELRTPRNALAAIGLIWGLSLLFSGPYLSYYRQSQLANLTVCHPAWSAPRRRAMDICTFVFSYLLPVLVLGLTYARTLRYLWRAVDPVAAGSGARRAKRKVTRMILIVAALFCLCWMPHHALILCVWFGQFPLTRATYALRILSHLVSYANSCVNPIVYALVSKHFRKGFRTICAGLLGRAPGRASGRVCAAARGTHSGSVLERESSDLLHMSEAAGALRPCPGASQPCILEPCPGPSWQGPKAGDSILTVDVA
HSV replic up – enhancers of HSV replication in host cells, fold increase, host cell viability; 220,000 tested, 0.005% active; HSV replication augmentation in cells; maximum fold increase;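 active = peak rise of 1.5-fold or more in the series; tested in PC3 cells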;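 note: first round at 10 µM; read as green reporter fluorescence; hits show the peak of a series up to 25 µM; 1 = signal of infected wells without compound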
Insulin prom inh cell count – second read-out of Insulin prom inh, no call of its own (marks repeat the call); normalized cell count, %; measured here: cell count, toxicity; reference of the scale not given here;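 cells exposed to compound for 48 h; stained nuclei by imaging scaled within each plate; lower means fewer cells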
HSV replic up primary fold – further read-out of HSV replic up, marked with its call; fold increase; compound at 10 µM; measured here: primary screen fold increase 10 uM; tested in PC3 cells;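 GFP signal in the first replicate; 1 = infected wells without compound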
Starred values were filed as active, the others as inactive; i = inactive; / = no result given; & = joins results of further samples.

Molecule	PKD1 inh	Insulin prom inh	Insulin prom inh cell count	RGS16-Gao	GALR2 agonist	HSV replic up	HSV replic up primary fold
O=C(O)c1cccc(Cn2c(Cl)c(/C=N/NC(=O)c3ccc(O)cc3)sc2=O)c1	/	/	/	99	/	i	1
CCCCNC(=O)Nc1ccccn1	-2	31	147	101	-0.9	i	0.88
S=C(Nc1ccc2cn[nH]c2c1)Nc1ccccc1Cl	6	64*	171*	100	-1.2	i	1
Cc1noc(C)c1C(=O)OC(C(=O)NC1CCCC1)c1ccc(F)cc1 (centres undefined)	-4	-15	80	104	-0.5	i	1.2
CCCN(CCC)C(=O)Cn1c(=O)n(CCCCC(=O)NCc2ccco2)c(=O)c2ccccc21	-6	5	138	69	-1.3	i	1.1
Cc1ccnn2c(-c3ccccc3)c3c(=O)n(C)c(=O)n(C)c3c12	-4	1	60	98	1.3	i	1.1
Cc1ccccc1NC(=O)c1sc2nc3c(c(-c4ccco4)c2c1N)CCC3	-1	0	178	94	-0.6	i	1.1
COc1ccc(-c2noc(C(=O)NCc3ccccc3Cl)n2)cc1OC	-1	24	132	100	/	i	1
CCOc1ccc(NC(=O)CCC(=O)NNC(=O)Nc2cccc(Cl)c2)cc1	-1	/	/	93	/	i	0.88
O=C(NC(Cc1c[nH]c2ccccc12)C(=O)Nc1ccc(F)cc1)c1cccs1 (centres undefined)	-9	-17	132	105	-0.9	i	0.82
CCOC(=O)N1CCN(CCC(=O)Nc2ccc(Br)cc2)CC1	1	/	/	99	7.9	i	0.86
CCOC(=O)CCCNC(=O)CN1C(=O)NC(CCc2ccccc2)C1=O (centres undefined)	-6	-10	116	100	-4.3	i	0.95
CCc1ccc(C(=O)COC(=O)C(Cc2ccccc2)NC(=O)C2CCC(C)CC2)cc1 (centres undefined)	5	/	/	105	-4.4	i	0.96
CCOc1cc(NC(=O)c2cccs2)c(OCC)cc1NC(=O)c1ccco1	1	3	103	102	-2.2	i	1.1
O=[N+]([O-])c1cc(F)c2cccnc2c1O	/	/	/	92	/	i	0.94
O=C(Nc1ccccc1N1CCN(C(=O)c2ccccc2)CC1)c1ccc(Cl)cc1	-1	/	/	100	/	i	1
Cc1ccc(CCNC(=O)CCc2nc3ccccc3[nH]2)cc1	-8	-5	159	98	-0.8	i	0.97
O=C(Cc1cccs1)N1CCN(c2ccccn2)CC1	-7	/	/	102	-1.2	i	0.95
O=C(Cn1nnc2ccccc21)c1ccc([N+](=O)[O-])cc1	/	/	/	99	/	i	0.82
O=C(CNC(=O)c1ccco1)OCC(=O)c1ccccc1Cl	-7	/	/	101	/	i	0.97
C=CCc1cccc2cc(C(=O)Nc3cccc(C(=O)O)c3)c(=O)oc12	/	/	/	98	/	i	1.1
CCOC(=O)c1ccc(NC(=O)CCOc2ccc(OC)cc2)cc1	7	-7	107	101	-1.0	i	1
Cc1[nH]c2ccccc2c1/C=C(\C#N)C(=O)NCc1ccccc1	0	/	/	104	0.1	i	1.2
COCCn1c(C)cc(C(=O)COC(=O)c2ccccc2Br)c1C	-6	/	/	97	/	i	0.86
CCOc1ccc(NC(=O)C(C)Sc2nnnn2C)cc1 (centres undefined)	-7	36	102	104	-3.1	i	0.91
Cn1c(C(=O)NC2CC2)cc2c(=O)n(C)c3ccccc3c21	2	/	/	109	-0.9	i	1
CCN(CC)S(=O)(=O)c1ccc(C)c(NS(=O)(=O)c2cc(/C=C/C(=O)O)cc(OC)c2OC)c1	-1	/	/	101	/	i	0.94
CCOC(=O)Cc1cnc(NC(=O)NC(C(=O)OCC)(c2ccccc2)C(F)(F)F)s1 (centres undefined)	2	33	101	98	0.1	i	1
CCOC(=O)c1cc(C)sc1NC(=S)Nc1ccccc1	-2	7	72	99	0.1	i	0.95
CCOC(=O)Cn1c(=O)oc2cc(S(=O)(=O)N(C)Cc3ccccc3)ccc21	/	/	/	100	/	i	1
Cc1ccc(NC(=O)c2sccc2C)cc1S(=O)(=O)N(C)C	-9	34	110	112	0.0	i	0.95
O=C(O)C1[C@H]2C(=O)N(Cc3cccs3)C[C@]23C=C[C@H]1O3 (some centres undefined)	-14	/	/	101	-0.3	i	0.96
CS(=O)(=O)N(CC(=O)N1CCCC1)c1ccc2c(c1)OCCO2	2	-12	133	100	-1.9	i	1
CCOC(=O)c1sc(NC(=O)CCN2CCN(C)CC2)c(C(=O)OCC)c1C	2	19	171	111	/	i	0.72
COCC(=O)Nc1cc(C(=O)NCC(C)C)ccc1Cl	3	-2	90	96	-1.3	i	1.1
CCCNC(=O)CCC(=O)Nc1ncc(-c2ccc(C)cc2)n1C	25	67	77	112	-3.0	i	0.85

Looked up above:
RGS16-Gao result of `CCOc1cc(NC(=O)c2cccs2)c(OCC)cc1NC(=O)c1ccco1` is entered as 102
PKD1 inh result of `CCCCNC(=O)Nc1ccccn1` is entered as -2

Remaining list, next part
Molecule	PKD1 inh	Insulin prom inh	Insulin prom inh cell count	RGS16-Gao	GALR2 agonist	HSV replic up	HSV replic up primary fold
CSCCC(NC(=O)c1cc(C)oc1C)C(=O)O (centres undefined)	6	-4	86	95	-0.4	i	1.1
Cc1ccc(/C=C/C(=O)Nc2nnc(C)s2)o1	-18	8	83	102	-0.7	i	1.1
Cn1c(/C(C#N)=C/c2cccc(O)c2)nc2ccccc21	0	/	/	101	/	i	0.9
O=C(c1cccc(N2C(=O)C3CC=CCC3C2=O)c1)N1CCCCCC1 (centres undefined)	3	/	/	92	-1.2	i	0.97
COc1ccc(OC)c(-c2nnc(NC(=O)C(C)Sc3nncn3C)s2)c1 (centres undefined)	-12	/	/	103	-1.5	i	0.86
Cn1c(=O)[nH]c(=O)c2c1ncn2CCCc1ccccc1	-9	/	/	95	-1.2	i	0.96
COc1ccc(NC(=S)N2N=CCC2c2ccccc2)cc1 (centres undefined)	-4	14	162	113	-3.5	i	0.89
Cc1c(Cl)cccc1NC(=S)N(Cc1ccco1)C(C)c1ccccn1 (centres undefined)	1	15	75	105	/	i	1.1
COc1ccc(-c2csc(/C=C/c3ccc4c(c3)OCO4)n2)cc1OC	-8	/	/	111	-0.3	i	0.9
Cc1cc(C)n2c(Nc3ccc4c(c3)OCCO4)c(-c3ccccc3)nc2n1	-1	3	109	102	1.1	i	0.96
CCn1c(=O)c(C(=O)NC(C)C)c(O)c2ccccc21	-2	-55	110	98	-2.4	i	0.91
COc1ccc(Nc2ncc(C#N)c(N)n2)c(OC)c1	/	/	/	103	/	i	0.93
COc1ccc2cc(C(=O)c3ccccc3)c(=O)oc2c1	-3	-35	122	102	0.4	i	0.89
OC(CNCCc1ccc(Cl)cc1)COCc1ccco1 (centres undefined)	9	-21	102	98	-1.0	i	0.99
COc1ccc(CCNC(=O)C2CCN(C(=O)c3cccs3)CC2)cc1	-1	/	/	103	/	i	0.9
C=CCSc1nc(N)c(C(=O)Nc2ccccc2)cc1C#N	-2	21	116	62	1.5	i	0.99
N#Cc1c(Cl)cccc1-n1ccnc1	21	14	79	102	-1.9	i	0.92
CS(=O)(=O)C1=C(O)C(=O)N(CCCC(=O)O)C1c1ccccc1F (centres undefined)	21	55	73	93	3.0	i	0.8
N/C(=N\OC(=O)CCCOc1ccccc1)c1ccccc1	-6	4	98	106	-0.3	i	0.84
COc1cc(C2NC(=O)C(C#N)=C(Nc3cccc(C)c3)S2)ccc1O (centres undefined)	/	/	/	103&100	/	i	1&1
OCCNc1ncnc2ccc(Br)cc12	0	/	/	100	-1.0	i	0.97
COc1ccc(CNC(=O)CCCN2C(=O)c3ccccc3C2=O)cc1	-6	-57	102	114	/	i	1
CCCN1CCC(NC(=O)Nc2ccc(Br)cc2)CC1	-3	18	78	98	/	i	0.9
CC1C(=O)CC(c2ccccc2)N(C)C1c1ccccc1 (centres undefined)	0	/	/	107	/	i	0.98

Some of these compounds in order of their number in PKD1 inh, highest first.
mol,PKD1 inh
CSCCC(NC(=O)c1cc(C)oc1C)C(=O)O (centres undefined),6
COc1ccc2cc(C(=O)c3ccccc3)c(=O)oc2c1,-3
O=C(CNC(=O)c1ccco1)OCC(=O)c1ccccc1Cl,-7

Grouped by structure, those above containing a COOH group
Molecule	PKD1 inh	Insulin prom inh	Insulin prom inh cell count	RGS16-Gao	GALR2 agonist	HSV replic up	HSV replic up primary fold
O=C(O)c1cccc(Cn2c(Cl)c(/C=N/NC(=O)c3ccc(O)cc3)sc2=O)c1	/	/	/	99	/	i	1
C=CCc1cccc2cc(C(=O)Nc3cccc(C(=O)O)c3)c(=O)oc12	/	/	/	98	/	i	1.1
CCN(CC)S(=O)(=O)c1ccc(C)c(NS(=O)(=O)c2cc(/C=C/C(=O)O)cc(OC)c2OC)c1	-1	/	/	101	/	i	0.94
O=C(O)C1[C@H]2C(=O)N(Cc3cccs3)C[C@]23C=C[C@H]1O3 (some centres undefined)	-14	/	/	101	-0.3	i	0.96
CSCCC(NC(=O)c1cc(C)oc1C)C(=O)O (centres undefined)	6	-4	86	95	-0.4	i	1.1
CS(=O)(=O)C1=C(O)C(=O)N(CCCC(=O)O)C1c1ccccc1F (centres undefined)	21	55	73	93	3.0	i	0.8

(more compounds)
Molecule	PKD1 inh	Insulin prom inh	Insulin prom inh cell count	RGS16-Gao	GALR2 agonist	HSV replic up	HSV replic up primary fold
OCCC1CN(Cc2cccc(OC3CCCC3)c2)CCN1Cc1ccsc1 (centres undefined)	-13	/	/	94	/	i	0.97
CS(=O)(=O)Nc1ccc(S(=O)(=O)NCCc2ccccc2)cc1	-8	-23	79	100	-3.0	i	0.85
COc1cc(CNC2CCCCC2OC)cc(OC)c1OC (centres undefined)	-7	-12	82	106	-0.6	i	1
Cc1c(NC(=O)C2CCCO2)cccc1[N+](=O)[O-] (centres undefined)	-10	/	/	112	-1.2	i	0.87
COc1ccc(CCNC(=O)c2cc(S(=O)(=O)N3CCC4(CC3)OCCO4)ccc2F)cc1OC	-2	0	113	104	/	i	1
Cc1ccc(C(=O)N/C(N)=N/c2nc3ccccc3o2)cc1	-6	4	89	97	-1.7	i	0.92
CCCNC(=O)c1nnsc1S(=O)(=O)c1ccc(Cl)cc1	5	i	10	24	/	i	0.62
Cc1ccc(NC(=O)COC(=O)C(NS(=O)(=O)c2ccc(Cl)cc2)C(C)O)cc1C (centres undefined)	2	-21	74	106	-1.5	i	1.1
CC(C)N(C(=O)COC(=O)c1cccc(C(=O)OCC(=O)N(C(C)C)C(C)C)n1)C(C)C	2	/	/	97	/	i	1
CCCc1noc2c1/C(=N\O)CC(CC(C)SCC)C2 (centres undefined)	-13	/	/	47	-2.1	i	0.92
COc1ccc(OC)c(NC(=O)c2[nH]c(C)c(C(C)=O)c2C)c1	2	/	/	75	-1.9	i	0.86
CC(C)(C)NC(=O)NC(=O)COC(=O)c1ccc(OC(F)(F)F)cc1	-2	/	/	98	-0.8	i	1.1

2 compounds picked at random from those above:
Molecule	PKD1 inh	Insulin prom inh	Insulin prom inh cell count	RGS16-Gao	GALR2 agonist	HSV replic up	HSV replic up primary fold
COc1ccc(CCNC(=O)c2cc(S(=O)(=O)N3CCC4(CC3)OCCO4)ccc2F)cc1OC	-2	0	113	104	/	i	1
Cc1cc(C)n2c(Nc3ccc4c(c3)OCCO4)c(-c3ccccc3)nc2n1	-1	3	109	102	1.1	i	0.96

Next structures.
Molecule	PKD1 inh	Insulin prom inh	Insulin prom inh cell count	RGS16-Gao	GALR2 agonist	HSV replic up	HSV replic up primary fold
O=C(NCCN1CCOCC1)C1CCC(=O)N1Cc1ccccc1Cl (centres undefined)	-2	0	124	103	-1.7	i	1.1
CCOC(=O)C1=C(N)Oc2cc(C)[nH]c(=O)c2C1c1ccncc1 (centres undefined)	0	/	/	100	-0.3	i	0.88
Cc1ccc(S(=O)(=O)N2CCOCC2)cc1C(=O)NCCN1C(=O)S/C(=C\c2ccccc2Cl)C1=O	-18	-73	89	104	1.3	i	0.81
N/C(=N\OC(=O)c1ccc(Br)cc1)c1ccccc1	10	3	150	117	-2.9	i	0.86
CC1CN(S(=O)(=O)c2ccccc2)CC(C)O1 (centres undefined)	1	-32	100	102	-3.4	i	1
CCC(=O)Nc1ccc(Cl)c(NC(=S)NC(=O)COc2ccccc2)c1	-12	-72	112	103	-0.7	i	0.88
Cc1ccc(C)c(-n2c(Cc3cc(=O)[nH]c(=O)[nH]3)nnc2SCC(=O)NCc2ccco2)c1	-1	12	103	/	-2.2	/	/

From PubChem BioAssay
